Assay outcomes: PubChem, Broad Institute
Vaccinia inh: blocks a specific stage of Vaccinia orthopoxvirus infection, primary screen, cell-based, single point. Vaccinia-infected cells, mCherry/Venus stage reporter fluorescence; active compounds read low; some inactives read as strong as hits. activity change (mCherry), % (test concentration not listed). 0.01% of 89,000 active;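 active = mCherry past -33% and 40 or more points under the early reporter, replicates agreeing; inconclusive = past -33% without that gap or agreement; tested in A549 cells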;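 also: scaled between vehicle wells and reference inhibitor wells; 23 nL library stock went into each well; one replicate is shown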
Vaccinia inh Venus: also measured in Vaccinia inh; calls as there; activity change (Venus), %; measured here: Venus reporter, other viral stage;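 negative = less Venus signal; first of two replicates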
* = called active by the depositor; ? = inconclusive; nt = not tested or not shown; & = joins results of further samples.

Under each structure: Vaccinia inh	Vaccinia inh Venus
> COc1ccc(C#Cc2ccc([C@@H]3[C@@H](CO)N4CCCCN(C(=O)Nc5ccccc5)C[C@H]34)cc2)cc1
    ?	nt
> C[C@H](CO)N1C[C@H](C)[C@H](CN(C)Cc2ccc(Cl)c(Cl)c2)Oc2c(NC(=O)Nc3ccc(C(F)(F)F)cc3)cccc2C1=O
    ?	nt
> O=C(C[C@@H]1C[C@@H]2c3cc(NS(=O)(=O)c4ccccc4)ccc3O[C@@H]2[C@H](CO)O1)N1CCCCC1
    6	-4
> COc1ccc(C#Cc2cnc3c(c2)C(=O)N([C@@H](C)CO)C[C@@H](C)[C@H](CN(C)CC2CCCC2)O3)cc1
    ?	nt
> C=CC[C@]1(C(=O)N(C)C)N=C(c2ccc(OCCCO)cc2)O[C@H]1c1ccccc1
    9	12
> O=C(C[C@@H]1CC[C@@H]2[C@H](COC[C@@H](O)CN2C(=O)Nc2ccccc2)O1)NC1Cc2ccccc2C1
    -18	-17
> C[C@@H]1CN([C@H](C)CO)C(=O)c2cc(NS(C)(=O)=O)ccc2O[C@@H]1CN(C)C(=O)Nc1ccccc1
    5	-2
> Cc1noc(C)c1NC(=O)Nc1ccc2c(c1)C(=O)N(C)[C@@H]1CC[C@@H](CC(=O)NCc3ccc(Cl)cc3)O[C@H]1CO2
    9	3
> CCCC(=O)Nc1ccc2c(c1)C(=O)N(C)C[C@H](OC)[C@H](C)CN(C(=O)c1ccccc1F)[C@H](C)CO2
    -12	-15
> CCC(=O)Nc1ccc2c(c1)OC[C@@H](C)N(C(=O)Cc1ccccn1)C[C@H](C)[C@@H](OC)CN(C)C2=O
    7	10
> COc1ccc(S(=O)(=O)N(C)C[C@@H]2Oc3ccc(NC(=O)Cc4ccccc4)cc3CC(=O)N([C@@H](C)CO)C[C@H]2C)cc1
    -12	-19
> O=S(=O)(NCC[C@@H]1CC[C@H](NS(=O)(=O)c2cccc(F)c2)[C@H](CO)O1)c1cccc(F)c1
    23	21
> C[C@@H]1CN([C@H](C)CO)C(=O)c2cc(NC(=O)NC3CCCCC3)ccc2O[C@@H]1CN(C)C(=O)Nc1cccc2ccccc12
    23	22
> C[C@@H]1CN([C@H](C)CO)C(=O)c2cc(NC(=O)Cn3cnnn3)ccc2O[C@H]1CN(C)S(=O)(=O)c1ccccc1
    8	12
> O=C(NC1CCCC1)[C@H]1[C@H](CO)[C@H]2Cn3c(cccc3=O)[C@H]2N1CCc1ccccc1
    9	4
> C[C@@H]1CN([C@H](C)CO)C(=O)Cc2cc(NC(=O)c3ccncc3)ccc2O[C@H]1CN(C)Cc1ccccc1
    8	5
> CNC[C@@H]1Oc2ccc(NS(C)(=O)=O)cc2C(=O)N([C@H](C)CO)C[C@@H]1C
    9	16
> C[C@H]1CN([C@@H](C)CO)C(=O)c2cc(NC(=O)CCCCCC(=O)Nc3ccccc3N)ccc2O[C@H]1CN(C)S(=O)(=O)c1ccc(Cl)cc1
    -7	-11
> C[C@H]1CCCCO[C@H](CN(C)C(=O)c2ccccc2)[C@@H](C)CN([C@@H](C)CO)C(=O)c2cc(NS(=O)(=O)c3ccc(Cl)cc3)ccc2O1
    ?	nt
> C[C@H](CO)N1C[C@H](C)[C@H](CN(C)C(=O)Nc2ccc3c(c2)OCO3)Oc2ccc(NC(=O)c3ccncc3)cc2CC1=O
    1	15
> C[C@@H]1CN([C@@H](C)CO)S(=O)(=O)c2ccc(-c3ccncc3)cc2O[C@@H]1CN(C)Cc1ccccc1
    ?	nt
> C[C@H](CO)N1C[C@H](C)[C@H](CN(C)C)Oc2ccc(NC(=O)Nc3ccc(C(F)(F)F)cc3)cc2C1=O
    -16	-12
> C[C@@H]1CN([C@@H](C)CO)C(=O)Cc2cc(NC(=O)CCCCCC(=O)Nc3ccccc3N)ccc2O[C@@H]1CN(C)C(=O)Nc1ccc(F)cc1
    14	10
> C[C@@H]1CN([C@@H](C)CO)C(=O)c2cccc(NS(C)(=O)=O)c2O[C@H]1CN(C)Cc1ccccc1
    8	12
> Cc1ccc(S(=O)(=O)Nc2ccc3c(c2)CC(=O)N([C@@H](C)CO)C[C@@H](C)[C@@H](CN(C)Cc2ccc(Oc4ccccc4)cc2)O3)cc1
    ?	nt
> O=C(C[C@@H]1CC[C@H]2[C@@H](COC[C@H](O)CN2Cc2cccc(Cl)c2)O1)Nc1nccs1
    -28	-22
> CCC(=O)N(C)C[C@@H]1Oc2cc(-c3cccc(F)c3)ccc2S(=O)(=O)N([C@@H](C)CO)C[C@@H]1C
    8	-4
> C[C@H]1CN([C@@H](C)CO)C(=O)c2cc(C#CC(C)(C)O)cnc2O[C@@H]1CN(C)C(=O)c1ccccc1F
    -1	-3
> CCC(=O)N1[C@H](CO)[C@H]2c3ccccc3N(C(=O)c3cnccn3)C[C@H]21
    11	3
> N#C[C@H]1[C@@H](c2ccccc2-c2ccccc2F)[C@@H](CO)N1C(=O)Cc1ccccc1
    -6	-14

The listing continues.
Under each structure: Vaccinia inh	Vaccinia inh Venus
> C[C@H](CO)N1C[C@H](C)[C@H](CN(C)Cc2ccc(Oc3ccccc3)cc2)Oc2ccc(NS(=O)(=O)c3cn(C)cn3)cc2CC1=O
    -15	-1
> COC(=O)C[C@H]1CC[C@@H]2[C@H](COc3ccc(NC(=O)c4ccc(OC)cc4)cc3C(=O)N2C)O1
    3	6
> C[C@@H]1CN([C@@H](C)CO)C(=O)CCCn2cc(nn2)CO[C@H]1CN(C)Cc1ccc(-c2ccccc2)cc1
    -6	-3
> O=C(C1CC1)N1CC(=O)N2[C@H](C1)[C@H](c1ccc(-c3cccnc3)cc1)[C@@H]2CO
    4	-1
> Cc1noc(C)c1NC(=O)Nc1cccc2c1O[C@@H](CN(C)C(=O)Nc1ccc3c(c1)OCO3)[C@H](C)CN([C@@H](C)CO)C2=O
    23	15
> O=C(NCC[C@@H]1CC[C@@H](NS(=O)(=O)c2ccc(Oc3ccccc3)cc2)[C@H](CO)O1)C1CC1
    -20	-17
> CN(C)C(=O)C[C@@H]1C[C@@H]2c3cc(NC(=O)c4cccnc4)ccc3O[C@@H]2[C@@H](CO)O1
    9	13
> C[C@H]1CCCCO[C@@H](CN(C)Cc2ccc(C(F)(F)F)cc2)[C@@H](C)CN([C@@H](C)CO)C(=O)c2cc(NS(=O)(=O)c3ccc(F)cc3)ccc2O1
    ?	nt
> Cc1noc(C)c1S(=O)(=O)N(C)C[C@H]1Oc2ccc(NS(C)(=O)=O)cc2C(=O)N([C@H](C)CO)C[C@H]1C
    2	2
> CNC[C@@H]1OCCCC[C@@H](C)Oc2ccc(NS(=O)(=O)c3ccc(C)cc3)cc2C(=O)N([C@@H](C)CO)C[C@@H]1C
    1	3
> COc1ccc(NC(=O)N(C)C[C@H]2Oc3ccc(NC(=O)Cc4ccccc4)cc3C(=O)N([C@@H](C)CO)C[C@@H]2C)cc1
    5	8
> Cc1noc(C)c1NC(=O)N(C)C[C@H]1Oc2cc(C#CCC3CCCC3)ccc2S(=O)(=O)N([C@H](C)CO)C[C@@H]1C
    ?	nt
> O=C(NCC[C@@H]1CC[C@@H](NC(=O)C2CCC2)[C@@H](CO)O1)Nc1ccc(Cl)cc1
    -2	1
> COCC(=O)N1[C@@H](CO)[C@@H]2c3ccccc3N(C(=O)c3cccc(OC)c3)C[C@@H]21
    14	3
> N#Cc1cccc(-c2ccc3c(c2)[C@H]2[C@H](CCN2Cc2ccncc2)[C@H](CO)N3)c1
    ?	nt
> CCCC#Cc1cnc2c(c1)C(=O)N([C@@H](C)CO)C[C@H](C)[C@@H](CN(C)C(=O)CCN1CCCCC1)O2
    13	4
> O=C(Cc1ccccn1)NCC[C@H]1CC[C@@H](NC(=O)Nc2ccc(C(F)(F)F)cc2)[C@@H](CO)O1
    -8	0
> C[C@@H]1CN([C@@H](C)CO)S(=O)(=O)c2ccc(-c3ccc(F)cc3)cc2O[C@@H]1CN(C)C
    -11	-11
> C[C@@H]1CN([C@H](C)CO)C(=O)c2cc(NC(=O)c3ccncc3)ccc2O[C@@H](C)CCCCO[C@H]1CN(C)S(=O)(=O)c1ccc(F)cc1
    -9	-8
> C[C@H]1CCCCO[C@H](CN(C)C(=O)c2ccncc2)[C@@H](C)CN([C@@H](C)CO)C(=O)c2cc(NS(=O)(=O)c3cn(C)cn3)ccc2O1
    19	9
> CC(C)NC(=O)Nc1ccc2c(c1)C(=O)N([C@H](C)CO)C[C@@H](C)[C@H](CN(C)S(=O)(=O)c1ccccc1)O2
    12	7
> C=CCNC(=O)[C@@H]1[C@H]2C(=O)O[C@H](c3ccccc3)[C@H](c3ccccc3)N2[C@H](c2ccccc2OCCO)[C@@]12C(=O)N(C(=O)OCCOC)c1ccc(C#CC3(O)CCCCCC3)cc12
    -14	-10
> C[C@H](CO)N1C[C@H](C)[C@@H](CN(C)S(=O)(=O)c2cn(C)cn2)Oc2cc(C3=CCCCC3)ccc2S1(=O)=O
    -24	-23
> COc1ccccc1-c1cnc2c(c1)C(=O)N([C@@H](C)CO)C[C@@H](C)[C@H](CN(C)C(=O)c1cccnc1)O2
    6&12	1&12
> CO[C@@H]1CN(C)C(=O)c2cc(NC(=O)CC(F)(F)F)ccc2OC[C@H](C)N(C(=O)c2ccccc2F)C[C@@H]1C
    40	22
> C[C@H]1CN([C@@H](C)CO)S(=O)(=O)c2ccc(Br)cc2O[C@@H]1CN(C)Cc1ccccn1
    -13	-14
> COc1ccc(NC(=O)N(C)C[C@H]2OCCCC[C@@H](C)Oc3ccc(NC(=O)Nc4ccc(C(F)(F)F)cc4)cc3C(=O)N([C@H](C)CO)C[C@@H]2C)cc1
    -13	-6
> CN(C)CC(=O)N1[C@@H](CO)[C@@H](c2ccccc2)C12CN(CCC(F)(F)F)C2
    15	17
> Cc1noc(C)c1NC(=O)Nc1ccc2c(c1)C(=O)N([C@@H](C)CO)C[C@@H](C)[C@@H](CN(C)S(=O)(=O)c1ccc(F)cc1)O2
    16	6
> C[C@H]1CN([C@@H](C)CO)C(=O)c2cc(NC(=O)Cc3ccccc3)ccc2O[C@@H]1CN(C)S(=O)(=O)c1ccc(Cl)cc1
    -5	7

Remaining list, next part
Under each structure: Vaccinia inh	Vaccinia inh Venus
> Cn1cnc(S(=O)(=O)N[C@H]2C=C[C@@H](CC(=O)NCC3CCCCC3)O[C@@H]2CO)c1
    -1	3
> C[C@H]1CN([C@@H](C)CO)C(=O)c2cc(-c3ccccc3F)cnc2O[C@H]1CN(C)C(=O)c1ccccn1
    10	12
> CCN1[C@@H]2c3ccc(C4=CCCCC4)c(=O)n3C[C@H]1[C@H](CO)[C@H]2C(=O)NCCOC
    -2	4
> CCCNC(=O)N1CC2(C1)[C@H](c1ccccc1)[C@H](CO)N2C(=O)C1CCCCC1
    6	1
> C[C@@H]1CN([C@@H](C)CO)C(=O)c2cccc(NC(=O)c3ccc(-c4nccs4)cc3)c2O[C@H]1CN(C)C
    25	3
> COc1ccc(NC(=O)N(C)C[C@@H]2OCCCC[C@H](C)Oc3ccc(NC(=O)Nc4ccccc4)cc3C(=O)N([C@H](C)CO)C[C@@H]2C)cc1
    4	10
> O=S(=O)(N[C@H]1CC[C@@H](CCn2cc(-c3cccc(F)c3)nn2)O[C@H]1CO)c1ccccc1
    -5	1
> COc1ccc2c3c(n(C)c2c1)[C@@H](CO)N(CC1CC1)CC31CCN(Cc2ccc(F)cc2)CC1
    ?	nt
> C[C@H](CO)N1C[C@H](C)[C@H](CN(C)C(=O)Nc2ccc3c(c2)OCO3)Oc2ccc(NC(=O)C3CC3)cc2C1=O
    21	19
> COc1ccc(S(=O)(=O)Nc2cccc3c2O[C@H](CN(C)C(=O)Nc2ccccc2)[C@H](C)CN([C@H](C)CO)C3=O)cc1
    4	2
> Cc1noc(C)c1NC(=O)Nc1ccc2c(c1)C(=O)N([C@H](C)CO)C[C@H](C)[C@H](CN(C)S(=O)(=O)c1cn(C)cn1)O2
    12	16
> C[C@H]1CN([C@@H](C)CO)C(=O)CCCn2nncc2CO[C@H]1CN(C)Cc1cccnc1
    12	4
> C[C@@H]1CN([C@@H](C)CO)C(=O)c2cccc(N(C)C)c2O[C@H]1CN(C)Cc1ccc(C(=O)Nc2ccccc2N)cc1
    -1	4
> CC=Cc1ccc2n(c1=O)C[C@@H]1[C@@H](CO)[C@H](C(=O)NCc3ccc4c(c3)OCO4)[C@H]2N1C(C)=O (mixture of isomers)
    13	17
> COc1ccc(S(=O)(=O)N2C[C@H](O)COC[C@@H]3O[C@H](CC(=O)NCCCN4CCOCC4)CC[C@H]32)cc1
    15	12
> O=C(C[C@@H]1CC[C@H](NC(=O)CCN2CCCCC2)[C@H](CO)O1)Nc1ccc(-c2ccccc2)cc1
    ?	nt
> CCC(=O)Nc1ccc2c(c1)C(=O)N(C)C[C@H](OC)[C@H](C)CN(Cc1cccc(F)c1)[C@H](C)CO2
    -21	-14

A portion of the library, so the mix of outcomes need not match the whole.
